Screening results deposited in PubChem by National Center for Advancing Translational Sciences (NCATS).
VDR inhibitor: Inhibitors of the vitamin D receptor (VDR): qHTS; Vitamin D3 receptor (Homo sapiens), P11473; VDR-SRC2-3 peptide fluorescence polarization, 2 h; Potency, µM, inactives show max response, negative = inhibition, hits mostly inhibitors; hit rate 0.93% among 400,000; active = well fitted inhibition curve with a large enough effect; inconclusive = small, poorly fitted or top-dose-only effect, or another doubt; inactive = no such curve, though single readings can be large or run the other way; note: series mostly up to about 120 µM
Target sequence (P11473 whole entry, looked up): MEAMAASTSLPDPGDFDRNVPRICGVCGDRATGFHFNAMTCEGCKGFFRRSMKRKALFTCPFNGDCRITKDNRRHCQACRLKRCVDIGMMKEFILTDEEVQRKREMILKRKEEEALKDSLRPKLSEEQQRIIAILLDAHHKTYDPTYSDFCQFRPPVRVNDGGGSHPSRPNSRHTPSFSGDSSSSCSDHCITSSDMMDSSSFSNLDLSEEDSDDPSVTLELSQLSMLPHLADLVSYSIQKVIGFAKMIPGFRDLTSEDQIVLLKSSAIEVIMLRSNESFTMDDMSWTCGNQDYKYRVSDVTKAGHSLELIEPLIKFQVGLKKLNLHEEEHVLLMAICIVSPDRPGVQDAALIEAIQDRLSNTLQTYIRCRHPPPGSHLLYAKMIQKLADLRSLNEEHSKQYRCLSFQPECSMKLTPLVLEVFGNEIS
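Compounds are added to VDR with labelled SRC2-3 coactivator peptide and held 2 h at room temperature. Inhibition of the VDR–peptide interaction is then read as a change in fluorescence polarization.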
Starred values were filed as active, the others as inactive; ? = inconclusive; [ ] = dose if it differs, or a comment. % is set by controls: 0 for no effect and ±100 for the full control effect; potency is the fitted concentration of half-maximal effect. Some of the compounds tested (hit frequency here may not be typical).

SMILES	VDR inhibitor
CCN(C(=O)COC(=O)/C=C/c1ccccc1[N+](=O)[O-])C1CCS(=O)(=O)C1 (stereo not drawn)	13.7%
O=C(NC(C(=O)c1ccccc1)N1CCCCCC1)c1ccco1 (stereo not drawn)	-15.0%
CCCC1CCc2c(c3ccccc3[nH]c2=O)O1 (stereo not drawn)	7.2%
CCCCNC(=O)c1onc(CSc2cccc3ccccc23)c1C(=O)O	-18.9%
Cc1ccnc(NC(=O)CCC(=O)N(CC(=O)NC2CCCCC2)c2cccc(C)c2C)c1	3.7%
CCCC(O)(c1ccccc1)C(c1ccccc1)c1ccccn1 (stereo not drawn)	16.2%
Cc1cccc(C(=O)Oc2coc(CSc3nnc(NC(=O)C4CC4)s3)cc2=O)c1	-21.0%
CC(=O)Nc1ccc2c(c1)nc(C)n2Cc1ccccc1	-9.0%
CC(=O)c1cnc(N2CCCCC2)nc1C	13.8%
CC(=O)O[C@]1(C(C)=O)CCC2C3CCC4=CC(=O)CCC4(C)C3(F)C(O)CC21C (stereo partly drawn)	-0.4%
O=c1oc2cc(OCc3ccc([N+](=O)[O-])cc3)ccc2c2c1CCCC2	-1.9%
Cc1ccc(S(=O)(=O)N2CCOCC2)cc1C(=O)N1CCN(c2ncccn2)CC1	3.2%
CCOc1ccc(NC(=O)CC2C(=O)N(C)C(=S)N2CCCc2ccccc2)cc1 (stereo not drawn)	1.3%
N#Cc1c(-c2ccc(Br)cc2)cc(-c2cccnc2)nc1N	?
C=CCN1C(=O)CSC1=Nc1ccc(C(=O)O)cc1	-22.8%
CCOC(=O)c1ccc(N2C(=O)c3n[nH]c(-c4cccs4)c3C2c2ccc(C(C)C)cc2)cc1 (stereo not drawn)	-8.0%
COc1ccc(-c2nc3scc(CCNS(=O)(=O)c4c(C)noc4C)n3n2)cc1	-2.7%
CC(C)CC(=O)OCc1cn(-c2ccccc2)nn1	14.4%
O=C(CSc1oc(-c2ccccc2)nc1S(=O)(=O)c1ccc(Cl)cc1)NC1CCCCC1	-5.6%
COc1ccc(S(=O)(=O)NC2CCCC2)cc1C(N)=O	-23.3%
Cc1oc(-c2ccc(-c3ccccc3)cc2)nc1CN(C)C1CCOC1 (stereo not drawn)	-20.5%
COCCCn1c(SCC(=O)NC(C)(C)C)nnc1-c1ccccc1	-5.1%
COCCNC(=O)Cc1c(C)c2c(cc(C)c3c(C)coc32)oc1=O	-20.8%
CCN(C[C@H]1N[C@@](CC)(C(=O)OC)[C@H]2C(=O)N(C)C(=O)[C@@H]12)C(=O)Nc1ccc(C(F)(F)F)cc1	-2.3%
O=C(/C=C/c1ccccc1)NNC(=O)C1CC1	-11.7%
CC(NC(=O)c1ccccc1)c1nnc(SCC(=O)NC2=NCCS2)n1C (stereo not drawn)	3.5%
CCOC(=O)/C=C/C(=O)Nc1ccc(S(=O)(=O)Nc2nccs2)cc1	-18.0%
COC(=O)C1(C)COP(=O)(NC23CC4CC(CC(C4)C2)C3)OC1 (stereo not drawn)	-5.4%
COc1ccc(OC)c(/C=N/NC(=O)c2cnccn2)c1	-20.3%
N#CC(C#N)=C(N)Nc1cccc(Cl)c1	6.4%
Cc1ccc(-c2csc(Nc3ccc(S(N)(=O)=O)cc3)n2)o1	-15.2%
CCOc1ccc(C(=O)Nc2nnc(C3=COCCO3)o2)cc1	-18.0%
CCCCCOC(=O)c1cc(=O)[nH]c2ccccc12	-8.1%
COc1cccc(-c2nc(-c3ccc4c(c3)-c3ccccc3S4(=O)=O)c(-c3ccccc3)[nH]2)c1OC	15.7%
CCOc1ccc(NS(=O)(=O)c2ccc3nc(-c4ccccc4)[nH]c3c2)cc1	-3.9%
CCOC(=O)C1CCN(S(=O)(=O)c2ccc(-c3ccc(=O)[nH]n3)o2)CC1	3.1%
CCCCN(CCCC)c1nc2ccccc2nc1C(C#N)C(=O)NCCCOC (stereo not drawn)	8.9%
COc1cnc(SCc2ccc(Cl)c(Cl)c2)nc1Cl	-0.6%
CCCCN1C(N)=NC[C@@H]1Cc1ccccc1	-2.5%
CC(=O)NCC1CCCN(c2nc3nonc3nc2N(C)Cc2ccccc2)C1 (stereo not drawn)	3.9%
Cc1ccc(CNC(=O)CN2CCN(Cc3ccc(F)cc3)C2=O)cc1	4.2%
O=C1CC2(CCN(C(=O)c3ccccc3Br)CC2)Oc2ccccc21	-8.9%
CNc1nc(-c2ccccc2)cc(C(F)(F)F)c1C#N	-10.9%
COc1cc(NC(C)CCCNC(C)C)c2ncccc2c1OC (stereo not drawn)	?
CCOC(=O)CNc1nc(Cl)nc(Nc2ccc(C)cc2)n1	-3.8%

Three entries out of the list above, ordered by the value under VDR inhibitor, ascending:
molecule,VDR inhibitor
Cc1ccc(-c2csc(Nc3ccc(S(N)(=O)=O)cc3)n2)o1,-15.2%
CNc1nc(-c2ccccc2)cc(C(F)(F)F)c1C#N,-10.9%
CCOC(=O)C1CCN(S(=O)(=O)c2ccc(-c3ccc(=O)[nH]n3)o2)CC1,3.1%

Going on with the list:
SMILES	VDR inhibitor
CCCCN1CC2([N+](=O)[O-])C=CC(=O)C([N+](=O)[O-])(C1)C2CC(=O)c1ccccc1 (stereo not drawn)	?
COc1ccc(C(=O)NCCn2cc(SCC(=O)Nc3nnc(C)s3)c3ccccc32)cc1	1.4%
C/C(=N\NC(=O)c1ccc(O)cc1)c1cccc(NC(=O)c2ccccc2C)c1	-13.8%
Cc1cccc(OCCCCn2nnc3sc4c(c3c2=O)CCC(C)C4)c1 (stereo not drawn)	12.6%
O=C1C2C3CCC(C3NCc3ccccc3)C2C(=O)N1Cc1ccccc1 (stereo not drawn)	-2.4%
Nc1ccc(C(=O)NCC2(c3ccccc3)CCCC2)cc1	8.5%
COc1ccc(N(C(=O)/C=C\C(=O)Nc2ccc(Cl)cc2)C(C(=O)NCc2ccco2)c2ccc(C)cc2)cc1 (stereo not drawn)	11.5%
Cn1c(=O)c2c(ncn2CC(=O)N2CCOCC2)n(C)c1=O	-2.4%
OC(c1ccc(Cl)cc1)C(O)c1nc2ccccc2[nH]1 (stereo not drawn)	-4.9%
COCCN(C(=O)c1ccc2c(c1)S(=O)(=O)N=C1CCCCCN12)c1c(N)n(CC(C)C)c(=O)[nH]c1=O	3.2%
Cc1ccc2c(c1)[nH]c1c(=O)n(CCN3CCCCC3)cnc12	-8.1%
CCOC(=O)C1=C(C)N(c2ccc(OC)cc2)C(=O)/C1=C\c1cccs1	30.6%[activator]
COc1ccc(C(=O)NC(Cc2ccccc2)c2ccc3c(c2)OCCCO3)cc1 (stereo not drawn)	-3.1%
O=S(=O)(NCc1ccncc1)c1ccccc1	5.1%
CCOC(=O)c1c(N)n(-c2ccc(N)cc2)c2nc3ccccc3nc12	-24.0%
O=C(NC(=S)Nc1ccc(CN2CCCCC2)cc1)c1cccc(OCc2ccccc2)c1	-23.7%
O=C(O)CCC(=O)Nc1ccc(Br)cc1C(=O)c1ccccc1	-14.3%
COc1ccc(Cl)cc1NC(=O)COc1ccc2c(c1)OCO2	8.9%
C=CCc1cccc2cc(C(=O)Nc3cccc(Cl)c3)c(=O)oc12	-5.4%
CCOc1ccc(C(=O)N/N=C/c2ccccc2[N+](=O)[O-])cc1	-27.5%
COc1ccc(-n2nc(C(=O)N3CCN(c4cccc(C)c4C)CC3)c3c4ccccc4n(C)c3c2=O)cc1	-8.2%
COC(=O)Cc1ccc(NC(=O)c2ccccc2Br)cc1	-0.2%
COc1ccc(S(=O)(=O)NCCC(=O)Nc2ccc(C)cc2)cc1	-5.6%
CN(C)CCCN(C(=O)c1ccc([N+](=O)[O-])o1)c1nc2cc3c(cc2s1)OCO3	6.7%
Cc1cc(N2CCOCC2)nc2ccc(NC(=S)NC(C)C)cc12	1.9%
Cc1ccc(NC(=O)c2cc(-c3cc(Cl)ccc3O)n[nH]2)cc1C	-2.1%
Cc1ccc(Nc2nc(-c3cccnc3)nc3ccccc23)cc1	7.2%
COC1C=CC=C(C)C(=O)NC2=CC(=O)C(N)=C(CC(C)CC(OC)C(O)C(C)C=C(C)C1OC(N)=O)C2=O (stereo not drawn)	-22.5%
Cc1cc(C)c(OCC(=O)Nc2nnn(C)n2)c(Br)c1	-13.4%
O=C(c1ccc([N+](=O)[O-])cc1)N(Cc1ccc(Cl)cc1Cl)N1C(=O)CCCC1=O	22.7%

The last seven compounds of the part before are carried over, then new ones follow.
SMILES	VDR inhibitor
CN(C)CCCN(C(=O)c1ccc([N+](=O)[O-])o1)c1nc2cc3c(cc2s1)OCO3	6.7%
Cc1cc(N2CCOCC2)nc2ccc(NC(=S)NC(C)C)cc12	1.9%
Cc1ccc(NC(=O)c2cc(-c3cc(Cl)ccc3O)n[nH]2)cc1C	-2.1%
Cc1ccc(Nc2nc(-c3cccnc3)nc3ccccc23)cc1	7.2%
COC1C=CC=C(C)C(=O)NC2=CC(=O)C(N)=C(CC(C)CC(OC)C(O)C(C)C=C(C)C1OC(N)=O)C2=O (stereo not drawn)	-22.5%
Cc1cc(C)c(OCC(=O)Nc2nnn(C)n2)c(Br)c1	-13.4%
O=C(c1ccc([N+](=O)[O-])cc1)N(Cc1ccc(Cl)cc1Cl)N1C(=O)CCCC1=O	22.7%
CCCn1c(=O)c(Br)cn(-c2ccccc2C)c1=O	-12.0%
CC(=O)N(CN1C(=O)c2ccc([N+](=O)[O-])cc2C1=O)c1ccc(F)cc1	-6.0%
COc1ccc(CNC(=O)CCNC(=O)c2ccc(C(C)(C)C)cc2)cc1OC	1.3%
Cc1ccc(OCCC(=O)OCC(=O)Nc2ccc(F)cc2)cc1	6.7%
CC(=O)Nc1ccn(C2OC(C(COC(C)=O)NC(=O)C(C)NC(=O)OC(C)(C)C)C(OC(C)=O)C2OC(C)=O)c(=O)n1 (stereo not drawn)	-5.4%
CCOC(=O)C1(Cc2cccc(OC)c2)CCN(CC2CC=CCC2)CC1 (stereo not drawn)	1.5%
COC(=O)C[C@H]1c2ccccc2S(=O)(=O)N1Cc1ccc(OC)cc1	15.1%
CCOc1ccc(S(=O)(=O)N2CCN(C(=O)c3cccnc3)CC2)cc1	6.1%
CC1=C(C(=O)OCc2ccccc2)C(c2ccccc2)NC(=O)N1CCCCCC(=O)O (stereo not drawn)	-13.0%
CN(C1CCCCC1)S(=O)(=O)c1ccc(-c2ccccn2)s1	1.5%
COC(=O)CNC(=O)CN(c1ccc(OC)cc1OC)S(=O)(=O)c1ccccc1	-5.3%
CC1=NN(C(=O)c2ccncc2)C(=O)C1N=Nc1ccc2ccccc2c1 (stereo not drawn)	4.1%
Cc1ccc(CSCC(=O)N(C)CC(=O)Nc2ccc(Cl)c(Cl)c2)cc1	-16.1%
CC1CCN(C(=O)CSCc2ccc(Cl)cc2)CC1	-18.9%
O=C(NCC1CCCN1S(=O)(=O)c1cccs1)c1ccc(Cl)cc1 (stereo not drawn)	2.8%
CCOC(=O)C1=C(COC(=O)CCC(=O)c2ccc(C)cc2)NC(=O)NC1C (stereo not drawn)	-8.8%
CN(CC(=O)N1CCN(c2ccccn2)CC1)S(=O)(=O)c1ccc2ccccc2c1	3.5%
CC(=O)c1cc(C#N)c(SCC(=O)OC(C)C)nc1C	12.7%
O=c1ccc2cc(S(=O)(=O)Nc3ccccc3F)ccc2o1	9.8%
NNC(=O)c1ccc(COc2ccc(Br)cc2)o1	-1.6%
COC(=O)c1ccccc1S(=O)(=O)N1CCC(C(=O)OC(C)C(=O)NC(N)=O)CC1 (stereo not drawn)	4.1%
COC(=O)c1ccccc1S(=O)(=O)N(Cc1cc2ccc(OC)cc2[nH]c1=O)CC1CCCO1 (stereo not drawn)	7.1%
Cc1ccc(S(=O)(=O)N(C)c2nc3ccccc3[nH]c2=S)cc1	?
CCN(CC)C(=O)c1cc2cc(Br)ccc2oc1=O	16.7%
Cc1nc(SCCC(C)C)c([N+](=O)[O-])[nH]1	1.1%
CC(C)(C)c1ccc(C(=O)Nc2cc(-c3nc4ccccc4o3)ccc2Cl)cc1	-19.9%
C[C@H]1O[C@@H](n2cnc3c(N)ncnc32)C[C@@H]1OP(=O)(O)OP(=O)(O)OP(=O)(O)O	-3.8%
Cc1cccc(C)c1NC(=O)CN1C(=O)NC(C)(C2CC2)C1=O (stereo not drawn)	0.9%
CC(=O)N1CCOc2ccc(S(=O)(=O)N3CCC(C(=O)NCc4ccccc4)CC3)cc21	16.5%
CC(=O)c1ccc(S(=O)(=O)N2CCN(C(=O)c3ccc(-n4cncn4)c([N+](=O)[O-])c3)CC2)cc1	-5.8%
O=C1CCN(Cc2ccccc2)C(=S)N1	-0.7%
O=C(NC(Cc1c[nH]c2ccccc12)C(=O)O)/C(=C\c1ccc2c(c1)OCO2)NC(=O)c1ccccc1 (stereo not drawn)	-12.5%
O=S(=O)(c1cccc2nsnc12)N1CCN(c2ccccc2F)CC1	0.7%
[O-]/[N+](=C\c1ccccc1)[C@@H]1CCCC[C@@H]1/[N+]([O-])=C/c1ccccc1	11.3%
COC(=O)C(C)N1C(=O)S/C(=C\c2ccc(-c3ccc(C(=O)O)cc3C)o2)C1=O (stereo not drawn)	22.4µM*
Cc1cc(C)c(S(=O)(=O)NC2CCN(Cc3ccccc3)CC2)c(C)c1	15.6%
CCn1c(SCC(=O)NC2CC2)nnc1-c1cccc(OC)c1	1.6%
COc1ccccc1CCNC(=O)c1ccc2nc[nH]c2c1	3.6%
CCOC(=O)c1[nH]c(C)c(CCC(=O)N2CCN(c3ccccc3)CC2)c1C	12.8%
O=C(CN1CCN(S(=O)(=O)c2ccc(F)cc2)CC1)Nc1cccc(C(F)(F)F)c1	-2.0%
O=[N+]([O-])c1cnn2cc(Br)cnc12	-24.6%
C=CC[C@@H](CC(=O)N(CCO)Cc1ccccc1)C(=O)N[C@H](COC(=O)[C@@H](CC=C)CC(=O)OC(C)(C)C)c1ccccc1	-5.1%
CS(=O)(=O)Nc1ccc(C(=O)Nc2ccc(S(=O)(=O)Nc3nccs3)cc2)cc1	-16.2%
COc1cc(Br)ccc1C1C(C(=O)Nc2ccc(C)cc2C)=C(C)Nc2nnnn21 (stereo not drawn)	-3.0%
C/C(CC(=O)Nc1cc(Cl)ccc1Cl)=N\NC(N)=S	-13.9%
